Compound activity deposited in PubChem BioAssay by several laboratories.
PABP FP inh – PABP poly(A) RNA binding inhibitors, primary screen, biochemical, fluorescence polarization, uHTS; Polyadenylate-binding protein 1 (Homo sapiens), P11940; inhibition, % at 35 µM; hit rate 1% among 290,000; AID 2014, 2009;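 active = 50% or more with normal probe brightness, or confirmed in later tests; about a fifth of its hits are not listed in these tables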;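 also: calls also rest on retests at 20 µM and on dose response follow-up; controls were probe without protein and protein plus probe with vehicle; some compounds called inactive have numbers as strong as hits; many hits fall short of the cut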
Target sequence (P11940 whole entry, looked up): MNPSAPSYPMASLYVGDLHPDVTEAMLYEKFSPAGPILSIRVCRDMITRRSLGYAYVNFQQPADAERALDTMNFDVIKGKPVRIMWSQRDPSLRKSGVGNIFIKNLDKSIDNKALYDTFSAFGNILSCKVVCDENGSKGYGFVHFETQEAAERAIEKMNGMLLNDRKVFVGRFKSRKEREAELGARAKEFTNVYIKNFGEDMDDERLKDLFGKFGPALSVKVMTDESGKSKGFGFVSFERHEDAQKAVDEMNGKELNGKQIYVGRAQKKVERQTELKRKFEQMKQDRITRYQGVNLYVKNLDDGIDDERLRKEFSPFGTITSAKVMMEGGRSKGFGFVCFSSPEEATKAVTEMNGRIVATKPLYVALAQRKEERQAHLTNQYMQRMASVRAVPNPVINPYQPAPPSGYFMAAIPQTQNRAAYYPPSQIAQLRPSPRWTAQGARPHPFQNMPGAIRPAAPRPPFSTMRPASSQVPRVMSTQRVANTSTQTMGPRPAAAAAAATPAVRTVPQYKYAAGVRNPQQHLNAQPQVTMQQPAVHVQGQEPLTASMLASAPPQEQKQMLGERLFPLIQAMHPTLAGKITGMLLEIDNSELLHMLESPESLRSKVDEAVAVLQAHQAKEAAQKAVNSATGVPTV
eIF4H FP inh – human eIF4H binding inhibitors, primary screen, translation initiation inhibitor project, biochemical, uHTS, fluorescence polarization; Eukaryotic translation initiation factor 4H (Homo sapiens), Q15056; eIF4H fluorescence polarization binding assay; inhibition, % at 35 µM; hit rate 0.94% among 290,000; AID 2012, 2009;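 active = 50% or more with normal probe brightness, or confirmed in later tests; about a fifth of its hits are not listed in these tables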;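 also: calls also rest on retests at 20 µM and on dose response follow-up; 0% = protein and probe with vehicle and 100% = probe without protein; strong numbers were not always called active; many hits fall short of the cut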
CSC inhib – cancer stem cell viability inhibitors, primary screen, luminescence; cancer stem cell-like cells viability; inhibition, % at 7.5 µM; hit rate 1.1% among 300,000; AID 2717, 2010;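 active = mean at 75% or more and at least half the replicates too; tested in HMLE shEcad cells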;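 also: 0% = median of negative and 100% = median of positive control wells; the first replicate is given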
Yeast UUG start – modulators of yeast start codon fidelity, primary screen, whole organism, S. cerevisiae, single point, plate reader | AID 602363, 2012 | activity score, % at 18.7 µM | hit rate 0.13% among 350,000 | S. cerevisiae UUG-firefly luciferase reporter, luminescence/redox ratio;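 active = replicate mean at a twofold rise or more, about +100% in these data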;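 also: firefly luciferase made from a UUG start codon reports start codon fidelity; reporter light over untreated wells divided by growth signal over untreated wells; some hits fall short of that in this replicate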
Rce1 inh – yeast Rce1p protease inhibitors, primary screen, biochemical, fluorescence, cell-free homogeneous | yeast membranes, quenched prenylated peptide cleavage fluorescence | AID 2563, 2010 | hit rate 0.27% among 290,000 | calls only | CAAX prenyl protease 2 (Saccharomyces cerevisiae (strain ATCC 204508 / S288c)), Q03530;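 active = fall in fluorescence gain of 50% or more versus controls, with final raw signal at or below 3038400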;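 also: plate controls were neutral control wells for no effect and wells lacking membranes for full effect; tested at 10 µM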
HIV Env fusion – inhibitors of HIV-1 Env-driven cell-cell fusion, primary screen, HeLa-JRFL effector, CEM21 target cells, luciferase | inhibition, % at 12.3 µM | hit rate 1.1% among 360,000;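 active = mean replicate inhibition score of at least 50 and every replicate individually at or above 50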;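 also: 0% = plate neutral controls and 100% = maraviroc near 300 nM; one replicate is shown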
MT1-MMP act inh – blockers of MT1-MMP proenzyme processing, primary screen, HT1080 RFP-PRO-GFP cells, GFP/RFP fluorescence; GFP/RFP ratio fluorescence, overnight; percent of plate control window, DMSO zero; GFP/RFP ratio change, % at 20 µM; hit rate 0.061% among 360,000; AID 651647, 2012;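 active = GFP/RFP ratio change of at least 30% with cell ATP level not reduced by more than half and red fluorescence within 50% of control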; also: strong numbers were not always called active
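Read-out: GFP/RFP fluorescence ratio; Test system: RFP-PRO-GFP reporter HT1080 cells; Compound dosing: single-point 20 µM compound, 1% DMSO; Times: overnight compound exposure at 37 °C.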
eIF4H FP inh retest – also measured in eIF4H FP inh; calls as there; inhibition, %; compound at 20 µM; confirmation average;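 mean of two retest wells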
PABP FP inh retest – also measured in PABP FP inh; calls as there; inhibition, %; compound at 20 µM; confirmation repeats;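 mean of two retest wells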
MT1-MMP act inh RFP – also measured in MT1-MMP act inh; calls as there; RFP signal change, %; measured here: RFP expression control read;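 0 = vehicle wells; hits needed this value within 50% of zero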
Numbers without * were called inactive; i = inactive; · = no result given.

SMILES	PABP FP inh	eIF4H FP inh	CSC inhib	Yeast UUG start	Rce1 inh	HIV Env fusion	MT1-MMP act inh	MT1-MMP act inh RFP	others
COc1cccc(OC)c1Nc1nc(C)nc2c1nnn2Cc1ccccc1Cl	-8	-8	-1	8	i	9	-1	-2
CNC(=O)/C(C#N)=C/c1cccc(Oc2ccccc2)c1	-11	-3	-3	-18	i	6	-3	-1
CCOc1ccc(N2C(=O)C(=O)/C(=C(/O)c3ccccc3)C2c2ccccc2[N+](=O)[O-])cc1 (stereo not drawn)	13	2	25	·	i	-5	-1	-4
Cc1cc(C)nc(NC(=O)c2cccc([N+](=O)[O-])c2)c1	0	-8	5	·	i	-7	-7	-2
COC(=O)c1c(-c2ccccc2)noc1C	-2	1	-3	·	i	-9	-3	1
COc1cc(SC)ccc1C(=O)N(CC(=O)Nc1ccccc1Br)Cc1ccco1	·	·	8	-7	i	-5	6	-1
Cc1cccc(C(=O)N2CCCC(N3CCN(c4ccccc4F)CC3)C2)n1 (stereo not drawn)	1	-11	3	2	i	8	-4	0
CC(NC(=O)c1ccc(CS(=O)(=O)c2ccc(Cl)cc2)o1)c1ccc2c(c1)OCCO2 (stereo not drawn)	2	-7	·	14	i	·	-5	-7
O=C(Nc1ccc(C(F)(F)F)cc1)C1CC(=O)N(c2ccc3c(c2)OCCO3)C1 (stereo not drawn)	-8	1	-3	-25	i	·	0	3
NNC(=S)Nc1c(F)cc(F)cc1Br	6	7	-9	-28	i	6	-1	4
CCN(CC)S(=O)(=O)c1ccc(N2CCOCC2)c(NC(=O)c2cc3ccccc3oc2=O)c1	5	6	12	-2	i	34	-9	-11
O=C(OCc1ccccc1)N1CCCC1/C=C/CN1CCOCC1 (stereo not drawn)	8	8	-2	·	i	-1	1	1
COc1c2ccoc2c(OCC=C(C)C)c2oc(=O)ccc12	2	-10	3	-19	i	·	-4	-3
Cc1ccc(S(=O)(=O)N2CCN(C(=O)c3c(-c4ccccc4)noc3C)CC2)cc1C	3	4	-5	1	i	18	-1	-4
CSc1cccc(NS(=O)(=O)c2ccc(C(C)=O)cc2)c1	1	-1	-15	·	i	-9	-3	-17
Cc1ccc(S(=O)(=O)CCC(=O)OC(C)C(=O)Nc2ccc(N3CCOCC3)cc2)cc1 (stereo not drawn)	·	·	7	-14	·	·	0	2
CCOc1ccccc1N(C)C(=O)c1cn(C)c(=O)c2ccccc12	-6	-2	-11	2	i	1	4	2
O=C(Nc1ccc2nc3n(c(=O)c2c1)CCCCC3)C(=O)N1CCN(c2ccccc2F)CC1	-2	-10	14	4	i	-15	4	0
CCOc1cc(-c2nc(-c3ccccc3)c(-c3cc([N+](=O)[O-])ccc3C)[nH]2)ccc1O	8	-7	·	-9	i	-70	1	-8
CC1CC(c2ccccc2)=Nc2ccccc2N1 (stereo not drawn)	11	5	-3	-17	i	-18	-1	4
O=[N+]([O-])c1ccccc1SNc1ccc(Br)cn1	-13	5	6	-16	i	11	7	3
COc1ccc2c(c1)C[C@]1(C)c3ccccc3C(=O)N(Cc3ccccc3)[C@H]21	·	·	·	-18	·	-68	-6	-11
Cc1cc(OCC(=O)Nc2ccc3c(c2)OCCO3)cc(C)c1Cl	2	-4	0	-8	i	-89	4	5
c1ccc(-c2c[nH]c3[n+]2CCCCC3)cc1	23	-5	-7	-1	i	·	-3	-2
CCOc1ccc(C(=O)Nc2ncn[nH]2)cc1	0	-2	-11	-22	·	-7	0	-1
CCCN(CCC)c1ccc(CC(=O)NC(C)Cc2ccccc2)cc1 (stereo not drawn)	-6	-5	12	·	i	-2	2	2
O=C1OC(c2ccc(O)cc2)(c2ccccc2O)c2ccccc21 (stereo not drawn)	·	·	·	0	·	-2	3	3
c1cnc2ccc(-n3ccnc3)cc2c1	·	·	·	-12	·	-5	-9	-5
COCCNC(=O)C(=O)Nc1cc2c3c(c1)CC(=O)N3CCC2	-3	-9	0	3	i	-1	3	3
C/C=C/COC(=O)c1[nH]c2c(c1C)C(=O)CC(c1ccc(N(C)C)cc1)C2 (stereo not drawn)	-6	-7	·	-11	i	-41	-3	-16
CCC(CC)N1CCN(C(=O)c2cccc(Cl)c2)CC1	13	18	-14	-14	i	-3	1	2
C=CCOc1nc2c(c(=O)n(C)c(=O)n2C)n1Cc1ccccc1Cl	-2	2	·	·	i	29	-3	-8
CC1(C)CC2(CCO1)OC(=O)CC2C(=O)NCc1ccccc1 (stereo not drawn)	2	-10	-5	·	i	4	0	3
CCCCCCCCCCCCCCCC(=O)OC[C@H](COP(=O)([O-])OCC[N+](C)(C)C)OC(=O)CCCCCCCCCCCCCCC	2	-6	·	·	i	·	·	·
COc1ccc(-c2nnc(SCC(C)C)o2)cc1	-9	-1	-13	-6	i	-117	0	-3
Cc1ccc(C(=O)N/C(=C\c2cccs2)C(=O)NCCc2c[nH]c3ccccc23)cc1	4	-4	-5	·	i	·	-1	1
CC(C)N1C(=O)C2C(C(=O)NC3CCCCC3)C3C=CC2(O3)C1C(=O)NC1CCCCC1 (stereo not drawn)	2	11	-3	7	i	-16	1	-4
O=C(CCc1ccc(S(=O)(=O)NC2CCCCC2)cc1)Nc1ccccc1	4	-2	-13	-24	i	·	4	0
O=C(c1cnc(-c2ccccc2)s1)c1ccc(Cl)cc1Cl	-6	-9	3	-19	i	-100	5	7
CCN(CC)S(=O)(=O)c1cc(OC)c(Cl)cc1OC	1	-6	21	·	i	12	1	1
CC(=O)Nc1ccc(NC(=O)CSc2nnnn2-c2ccccc2F)cc1	3	-16	-11	-14	i	-15	-1	-1
Cc1cccc(NC(=O)c2cc(-c3c(C)cc(C)cc3O)n[nH]2)c1	7	-4	-6	-2	i	-13	8	0
CN(C)c1ccc(C=NCC2(O)CCOC(C)(C)C2)cc1 (stereo not drawn)	-2	4	-1	-11	i	·	-2	0
CCCCOC(=O)c1ccc(NC(=O)c2c(OC)cccc2OC)cc1	-3	-3	·	·	i	5	-1	4
NS(=O)(=O)c1ccc(CCNC(=O)c2ccccc2OCc2ccc(F)cc2)cc1	16	-7	-5	-9	i	-1	2	1
COc1ccccc1N1CCN(C2CCCN(C(=O)C3=NN(C)C(=O)CC3)C2)CC1 (stereo not drawn)	-2	-20	2	-12	i	-4	-1	3
CC(C)N(NC(=O)c1cccc2ccccc12)C(C)C	-3	90	-3	·	i	-2	-5	1	eIF4H FP inh retest=-3;PABP FP inh retest=5
Cc1ccc(CC(=O)N2CCN(c3ccc([N+](=O)[O-])cc3)CC2)cc1	10	32	3	-2	i	8	7	-9
C[C@H](CCCC/C=C/C(=O)O)O[C@@H]1O[C@@H](C)[C@H](O)C[C@H]1O	·	·	-16	-10	·	6	4	6
COC(=O)Cc1csc(Nc2ccccc2)n1	-4	6	13	·	i	-6	6	2
CCN1CCN(C(=O)Nc2ccc(Cc3ccc(NC(=O)N4CCN(CC)CC4)cc3)cc2)CC1	-4	7	-3	0	i	·	8	4
Cc1[nH]c2ccccc2c1/C=N/NC(=O)CNC(=O)COc1ccccc1	-5	4	-4	-21	i	22	2	2
NC(=O)c1ccc(NC(=O)COC(=O)/C=C/c2cn(-c3ccccc3)nc2-c2cccnc2)cc1	14	27	10	-9	i	3	-3	5
COc1cccc(NC(=O)CN(C)C(C)C(=O)Nc2ccc(C#N)cc2)c1 (stereo not drawn)	-3	4	8	·	i	-18	-2	1
O=c1oc2ccccc2c(O)c1/C=C1\C=Nc2ccccc21	-4	-1	12	-17	i	-30	-9	-1
CCOc1ccc(NC(=O)Cn2c(=O)oc3cc(Cl)ccc32)cc1	7	-7	-8	-8	i	-12	2	2
COc1ccc(S(=O)(=O)NCCSCc2ccco2)cc1C	·	·	-8	·	i	·	-5	2
COCCCNC(=O)C(=O)Nc1cc2c3c(c1)CCC(=O)N3CCC2	-4	2	-12	5	i	5	5	7
COc1cc(OC)c(C#N)c(S(=O)(=O)Cc2ccccc2)c1	10	-2	3	-9	i	·	2	12
CCn1cc(CN2CCc3c([nH]c4ccccc34)C2c2cccc(OC)c2)c(C)n1 (stereo not drawn)	-3	2	16	·	i	22	-2	3

Molecules from the list above containing two or more sulfur atoms:
SMILES	PABP FP inh	eIF4H FP inh	CSC inhib	Yeast UUG start	Rce1 inh	HIV Env fusion	MT1-MMP act inh	MT1-MMP act inh RFP	others
CSc1cccc(NS(=O)(=O)c2ccc(C(C)=O)cc2)c1	1	-1	-15	·	i	-9	-3	-17
COc1ccc(S(=O)(=O)NCCSCc2ccco2)cc1C	·	·	-8	·	i	·	-5	2

Three records drawn at random from the list so far, as already listed:
SMILES	PABP FP inh	eIF4H FP inh	CSC inhib	Yeast UUG start	Rce1 inh	HIV Env fusion	MT1-MMP act inh	MT1-MMP act inh RFP	others
CC(C)N(NC(=O)c1cccc2ccccc12)C(C)C	-3	90	-3	·	i	-2	-5	1	eIF4H FP inh retest=-3;PABP FP inh retest=5
Cc1ccc(CC(=O)N2CCN(c3ccc([N+](=O)[O-])cc3)CC2)cc1	10	32	3	-2	i	8	7	-9
COc1cccc(NC(=O)CN(C)C(C)C(=O)Nc2ccc(C#N)cc2)c1 (stereo not drawn)	-3	4	8	·	i	-18	-2	1

Carrying on.
SMILES	PABP FP inh	eIF4H FP inh	CSC inhib	Yeast UUG start	Rce1 inh	HIV Env fusion	MT1-MMP act inh	MT1-MMP act inh RFP	others
C=CCOc1cccc(C2NC(=O)c3ccccc3O2)c1 (stereo not drawn)	2	-4	-6	4	i	-4	0	3
Cc1ccc(S(=O)(=O)NCCN=C(CN2CCOCC2)NS(=O)(=O)c2ccc(C)cc2)cc1	-6	11	-9	6	i	4	-3	1
Cc1cc([N+](=O)[O-])nn1CC(=O)Nc1ccc(F)cc1	0	5	-2	-16	i	-117	3	2
CCOc1ccc(NC(=O)CCS(=O)(=O)c2ccc3c(c2)CCCN3C(=O)CC)cc1	-5	1	6	-6	i	-23	-2	0
O=C(O)c1ccc(/C=N/NC(=O)C(O)(c2ccccc2)c2ccccc2)cc1	-12	-9	0	-1	i	-7	2	7
CC(=O)Nc1cccc(NC(=S)Nc2cccc3ccccc23)c1	27	86	-2	1	i	-29	3	4	eIF4H FP inh retest=14;PABP FP inh retest=38
Cc1ccc(C(=O)N2CCN(C(=O)c3ccco3)CC2)cc1NC(=O)c1ccco1	7	12	-2	·	i	0	1	8
COc1ccc(NC(=O)CN2CCc3ccccc3C2)cc1OC	-4	4	-18	11	i	-3	1	-4
Cc1cc(O)c(C(C[N+](=O)[O-])c2ccc(Cl)cc2Cl)c(=O)o1 (stereo not drawn)	10	5	20	-6	i	·	-2	2
CNC(=O)C(C)NS(=O)(=O)c1ccc(F)cc1 (stereo not drawn)	-10	8	-2	-22	i	-64	0	3
CS(=O)(=O)C1=NSC2=NC(=O)/C(=C\c3cccn3-c3ccccc3Cl)C(=N)N21	-3	30	4	·	i	-1	-14	0
Cc1ccc(S(=O)(=O)N2CCCCC2CCNC(=O)C(=O)NC2CC2)cc1 (stereo not drawn)	·	·	0	0	i	·	2	-1
CCOc1cc(N2CCOCC2)c(OCC)cc1NC(=O)c1ccccc1N1CCCC1=O	·	·	·	17	·	12	3	-4
CC1C2CC(C(S(=O)(=O)N3CCOCC3)C2=O)C1(C)C (stereo not drawn)	6	1	-14	-12	i	8	-6	1
Cc1cccc(S(=O)(=O)NNC(=O)Cc2cccn2C)c1	-10	3	15	·	i	-6	5	-10

These rows are one share of the data, so the mix of outcomes need not match the whole.
